Screening data as filed in PubChem BioAssay.
eIF4H inh: inhibitors of RNA binding by human eIF4H; hit rate 0.94% among 290,000; inhibition, % at 35 µM; AID 2012; eIF4H fluorescence polarization binding assay;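 active = 50% or more with normal probe brightness, or confirmed in later tests; about a fifth of its hits are not listed in these tables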;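 note: calls also rest on retests at 20 µM and on dose response follow-up; 0% = protein and probe with vehicle and 100% = probe without protein; strong numbers were not always called active; many hits fall short of the cut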
MT1-MMP act inh: inhibitors of human MT1-MMP activation | P50281 | HT1080 RFP-PRO-GFP cells, GFP/RFP ratio fluorescence, overnight; percent of plate control window, DMSO zero | GFP/RFP ratio change, % at 20 µM | hit rate 0.061% among 360,000 | AID 651647;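 active = GFP/RFP ratio change of at least 30% with cell ATP level not reduced by more than half and red fluorescence within 50% of control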; note: strong numbers were not always called active
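system = RFP-PRO-GFP reporter HT1080 cells | dosing = 20 µM single dose, 1% DMSO | timing = overnight cell settling, then overnight compound exposure, 37 °C, 5% CO2 | read-out basis = GFP/RFP fluorescence ratio | controls = DMSO and RFP-L50D-GFP cell wells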
UUG fidelity: alters start codon recognition fidelity in yeast; S. cerevisiae UUG-firefly luciferase reporter, luminescence/redox ratio; activity score, % at 18.7 µM; hit rate 0.13% among 350,000;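 active = replicate mean at a twofold rise or more, about +100% in these data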;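 note: firefly luciferase made from a UUG start codon reports start codon fidelity; reporter light over untreated wells divided by growth signal over untreated wells; some hits fall short of that in this replicate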
CSC inhib: blocks cancer stem cells; cancer stem cell-like cells viability, luminescence; inhibition, % at 7.5 µM; hit rate 1.1% among 300,000; AID 2717;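 active = mean at 75% or more and at least half the replicates too; tested in HMLE shEcad cells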;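 note: 0% = median of negative and 100% = median of positive control wells; the first replicate is given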
Rce1 inhib: inhibitors of yeast Ras-converting enzyme | Q03530 | yeast membranes, quenched prenylated peptide cleavage fluorescence | calls only | hit rate 0.27% among 290,000 | AID 2563;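 active = fall in fluorescence gain of 50% or more versus controls, with final raw signal at or below 3038400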;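 note: plate controls were neutral control wells for no effect and wells lacking membranes for full effect; tested at 10 µM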
PABP FP inh: PABP-poly(A) binding inhibition; P11940; PABP-poly(A) RNA binding, fluorescence polarization; inhibition, % at 35 µM; hit rate 1% among 290,000; AID 2014;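 active = 50% or more with normal probe brightness, or confirmed in later tests; about a fifth of its hits are not listed in these tables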;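 note: calls also rest on retests at 20 µM and on dose response follow-up; controls were probe without protein and protein plus probe with vehicle; some compounds called inactive have numbers as strong as hits; many hits fall short of the cut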
Target sequence (P11940 whole entry, looked up): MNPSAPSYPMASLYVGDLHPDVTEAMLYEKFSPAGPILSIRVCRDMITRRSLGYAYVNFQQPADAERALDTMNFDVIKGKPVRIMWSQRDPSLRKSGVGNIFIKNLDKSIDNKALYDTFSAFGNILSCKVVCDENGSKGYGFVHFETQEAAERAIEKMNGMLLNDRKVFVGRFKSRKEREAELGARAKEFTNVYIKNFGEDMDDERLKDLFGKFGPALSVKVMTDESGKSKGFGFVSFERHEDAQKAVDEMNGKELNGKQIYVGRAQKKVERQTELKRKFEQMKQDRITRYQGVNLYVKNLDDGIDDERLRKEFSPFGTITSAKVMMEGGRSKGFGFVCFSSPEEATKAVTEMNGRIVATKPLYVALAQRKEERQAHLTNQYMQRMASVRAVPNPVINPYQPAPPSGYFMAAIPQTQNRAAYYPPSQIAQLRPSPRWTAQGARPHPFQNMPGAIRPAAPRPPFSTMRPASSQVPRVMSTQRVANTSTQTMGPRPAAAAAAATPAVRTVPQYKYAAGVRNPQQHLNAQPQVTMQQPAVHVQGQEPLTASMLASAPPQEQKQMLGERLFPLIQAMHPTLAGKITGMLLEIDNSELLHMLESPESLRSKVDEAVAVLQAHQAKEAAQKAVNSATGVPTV
HIV Env fusion: HIV envelope-mediated fusion inhibition; HeLa-JRFL Env/CEM21 cell fusion, luciferase; inhibition, % at 12.3 µM; hit rate 1.1% among 360,000; AID 651610;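 active = mean replicate inhibition score of at least 50 and every replicate individually at or above 50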;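 note: 0% = plate neutral controls and 100% = maraviroc near 300 nM; one replicate is shown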
MT1-MMP act inh RFP: recorded beside MT1-MMP act inh, whose call it bears; RFP signal change, %; measured here: RFP expression control read;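 0 = vehicle wells; hits needed this value within 50% of zero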
The depositor's hits bear a star; i = inactive; x = not tested or not shown; & = joins results of further samples. These rows are one share of the data; the hit share may differ from the screen's.

Labels used below: A = eIF4H inh; B = MT1-MMP act inh; C = MT1-MMP act inh RFP; D = UUG fidelity; E = CSC inhib; F = Rce1 inhib; G = PABP FP inh; H = HIV Env fusion
> CCOC(=O)C1CCN(S(=O)(=O)c2ccc3c(c2)CC(=O)N3)CC1
  A: 6 | B: 0 | C: 2 | D: -8 | E: 5 | F: i | G: -5 | H: -29

> CC(=O)Nc1ccc(S(=O)(=O)N2CCC(C(=O)NCc3cccnc3)CC2)cc1
  A: -11 | B: 1 | C: 1 | D: -19 | E: -18 | F: i | G: -10 | H: -3

> O=C(Cc1ccc([N+](=O)[O-])cc1)Nc1cccc(C(F)(F)F)c1
  A: -2 | B: 5 | C: -4 | D: x | E: -2 | F: i | G: -24 | H: 23

> Cc1ccc(NC(=O)CCC(=O)OCC(=O)c2ccc(Oc3ccc([N+](=O)[O-])cc3)cc2)cc1
  A: -10 | B: 2 | C: 4 | D: x | E: -6 | F: i | G: -12 | H: -8

> CC(=O)Nc1sc(N/N=C\c2ccco2)nc1-c1cccs1
  A: 24 | B: -2 | C: 3 | D: -27 | E: -11 | F: i | G: -22 | H: 0

> O=[N+]([O-])c1ccc(/C=N/NS(=O)(=O)c2ccc(Cl)cc2)o1
  A: 5 | B: -2 | C: 1 | D: -12 | E: 5 | F: x | G: -4 | H: -11

> C=CCNC(=S)NNc1nc(N2CCCC2)nc(N2CCCC2)n1
  A: -6 | B: -2 | C: -1 | D: -14 | E: -13 | F: i | G: -4 | H: 4

> O=C(NCCCCO)c1ccc2c3c(cccc13)CC2
  A: -2 | B: 2 | C: 0 | D: x | E: -14 | F: i | G: 2 | H: 22

> O=C(CCn1ccnc1)Nc1ccc2ccccc2c1
  A: -12 | B: 2 | C: -1 | D: 2 | E: 4 | F: i | G: 6 | H: -7

> Cc1ccc(COc2ccc(/C=N/O)cc2)cc1
  A: -4 | B: -1 | C: -7 | D: x | E: 8 | F: i | G: -11 | H: -10

> C[C@H](CO)N1C[C@H](C)[C@H](CN(C)S(=O)(=O)c2ccc(Oc3ccccc3)nc2)OCc2cnnn2CCCC1=O
  A: x | B: -2 | C: 2 | D: -4&19 | E: x | F: x | G: x | H: -29

> CN(C)CCn1c2c(c(SCC(=O)Nc3nccs3)nc1=O)CCCC2
  A: x | B: 0 | C: 4 | D: -8 | E: -7 | F: i | G: x | H: -2

> O=C(Cc1cccs1)NCCN1CCOCC1
  A: 17 | B: 1 | C: 3 | D: x | E: -10 | F: i | G: 28 | H: 23

> Cc1ccc(C)c(S(=O)(=O)N2CCCOC2CNC(=O)C(=O)NCc2ccccc2)c1 (configuration not stated)
  A: -3 | B: 19 | C: -6 | D: 8 | E: 1 | F: i | G: -4 | H: -99

> COc1ccc(CN(C)CC(=O)Nc2cccc3ccccc23)cc1F
  A: 0 | B: 9 | C: -7 | D: -14 | E: -3 | F: i | G: -6 | H: 5

> CCOc1ccccc1NC(=O)N1CCCC(c2nc(-c3ccc(C)o3)no2)C1 (configuration not stated)
  A: -6 | B: -2 | C: -1 | D: x | E: -3 | F: x | G: 7 | H: 8

> CC(C)(C)C1CCc2onc(C(=O)NCc3ccc(F)cc3)c2C1 (configuration not stated)
  A: -1 | B: 6 | C: -4 | D: -17 | E: 28 | F: i | G: -6 | H: 76*

> Cc1ccc(S(=O)(=O)c2c(C)cc(C)nc2Oc2cccc(C)c2C)cc1
  A: -1 | B: -7 | C: -6 | D: -14 | E: 23 | F: i | G: 7 | H: x

> Cc1ccccc1N=C(N)Nc1ccccc1C
  A: x | B: -15 | C: -1 | D: -7 | E: -7 | F: x | G: x | H: -5

> CCOc1ccc(Oc2ccc(C(F)(F)F)cc2NC(=O)C2=COCCO2)cc1
  A: x | B: -5 | C: -6 | D: -15 | E: 14 | F: x | G: x | H: x

> Cc1ccccc1NC(=O)Cc1nc(COC(=O)CSc2ccccc2)cs1
  A: -5 | B: -4 | C: 8 | D: -19 | E: x | F: i | G: 2 | H: 36

> O=C(O)c1ncn(Cc2ccc(Br)cc2)c1C(=O)O
  A: 7 | B: -2 | C: 4 | D: x | E: -5 | F: i | G: -2 | H: 10

> O=C(Nc1ccc2c(c1)OCO2)NC1CCN(Cc2ccccc2)CC1
  A: -7 | B: 5 | C: 2 | D: 11 | E: -6 | F: i | G: 34 | H: x

> CSCCC(NC(=O)c1ccccc1Cl)C(=O)Nc1cccc(S(=O)(=O)N2CCCC2)c1 (configuration not stated)
  A: x | B: -5 | C: -1 | D: -10 | E: -10 | F: i | G: x | H: -14

> CN(C)C=NC(=O)c1cc(C(=O)c2ccccc2)c[nH]1
  A: 1 | B: 0 | C: 2 | D: x | E: -6 | F: i | G: 1 | H: 6

5 of the compounds above, in markdown.
| canonical_smiles | eIF4H inh | MT1-MMP act inh | MT1-MMP act inh RFP | UUG fidelity | CSC inhib | Rce1 inhib | PABP FP inh | HIV Env fusion |
| --- | --- | --- | --- | --- | --- | --- | --- | --- |
| CC(=O)Nc1ccc(S(=O)(=O)N2CCC(C(=O)NCc3cccnc3)CC2)cc1 | -11 | 1 | 1 | -19 | -18 | i | -10 | -3 |
| CN(C)C=NC(=O)c1cc(C(=O)c2ccccc2)c[nH]1 | 1 | 0 | 2 | x | -6 | i | 1 | 6 |
| Cc1ccc(COc2ccc(/C=N/O)cc2)cc1 | -4 | -1 | -7 | x | 8 | i | -11 | -10 |
| CN(C)CCn1c2c(c(SCC(=O)Nc3nccs3)nc1=O)CCCC2 | x | 0 | 4 | -8 | -7 | i | x | -2 |
| O=C(Cc1cccs1)NCCN1CCOCC1 | 17 | 1 | 3 | x | -10 | i | 28 | 23 |

Back to the main list; the two compounds before the break are reprinted first.
Labels used below: A = eIF4H inh; B = MT1-MMP act inh; C = MT1-MMP act inh RFP; D = UUG fidelity; E = CSC inhib; F = Rce1 inhib; G = PABP FP inh; H = HIV Env fusion
> CSCCC(NC(=O)c1ccccc1Cl)C(=O)Nc1cccc(S(=O)(=O)N2CCCC2)c1 (configuration not stated)
  A: x | B: -5 | C: -1 | D: -10 | E: -10 | F: i | G: x | H: -14

> CN(C)C=NC(=O)c1cc(C(=O)c2ccccc2)c[nH]1
  A: 1 | B: 0 | C: 2 | D: x | E: -6 | F: i | G: 1 | H: 6

> CCCSc1nnc(NC(=O)Nc2ccc(C)cc2)s1
  A: 0 | B: -1 | C: -6 | D: -11 | E: 11 | F: i | G: 0 | H: -2

> COc1ccc(CCC(=O)Nc2ccc(Cl)c(S(=O)(=O)N3CCCC3)c2)cc1
  A: 0 | B: -3 | C: -30 | D: -8 | E: 11 | F: i | G: 11 | H: 14

> Brc1ccc(-c2nnc(-c3ccco3)o2)cc1
  A: -2 | B: 1 | C: 3 | D: x | E: x | F: i | G: -1 | H: x

> CCOC(=O)C1=C(C)NC(SCC(N)=O)=C(C#N)C1c1cccs1 (configuration not stated)
  A: -4 | B: 3 | C: 3 | D: x | E: -8 | F: i | G: 9 | H: x

> CCOC(=O)Cc1nc(-c2cccc(C(F)(F)F)c2)no1
  A: -2 | B: 1 | C: 7 | D: x | E: -11 | F: i | G: 2 | H: -3

> Cc1cc(C)nc(N2C(=O)CC(C(=O)O)NC2=NCCc2c[nH]c3ccccc23)n1 (configuration not stated)
  A: 5 | B: -6 | C: 2 | D: -14 | E: -9 | F: i | G: 4 | H: x

> O=C(Nc1ccc(S(=O)(=O)NC2=NCCCCC2)cc1)c1cccc(S(=O)(=O)N2CCOCC2)c1
  A: x | B: 8 | C: -8 | D: 4 | E: 0 | F: x | G: x | H: 11

Whole records, looked up by structure. Order of values: eIF4H inh | MT1-MMP act inh | MT1-MMP act inh RFP | UUG fidelity | CSC inhib | Rce1 inhib | PABP FP inh | HIV Env fusion
CCOc1ccccc1NC(=O)N1CCCC(c2nc(-c3ccc(C)o3)no2)C1 (configuration not stated) is entered as -6 | -2 | -1 | x | -3 | x | 7 | 8
CCOC(=O)C1=C(C)NC(SCC(N)=O)=C(C#N)C1c1cccs1 (configuration not stated) is entered as -4 | 3 | 3 | x | -8 | i | 9 | x
CC(=O)Nc1sc(N/N=C\c2ccco2)nc1-c1cccs1 is entered as 24 | -2 | 3 | -27 | -11 | i | -22 | 0
